# CapD inh: Bacillus anthracis CapD inhibitors, primary screen, biochemical, fluorescence intensity; CapD gamma-glutamyltranspeptidase (Bacillus anthracis Ames Ancestor); purified CapD enzyme, fluorescence intensity read-out; stronger effect = lower value; some hits fall short of the stated cut; z-score (no concentration beside the values); 0.23% of 140,000 active; AID 492967, 2010;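 active = z-score under -4 in either of two replicates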;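 note: stock transfer was 100 nL into about 40 µL; score is relative to mean and spread of the plate; one replicate is shown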
# AID504770: growth inhibition of E. coli YBA685, primary screen, V. cholerae RctB inhibitors; E. coli YBA685 rctB-dependent plasmid, OD600 growth, 3 h; stronger effect = lower value; 0.27% of 130,000 active; z-score (no concentration beside the values);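 active = z-score under -2 on both plates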;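 note: wells of about 30 µL received 100 nL stock; score is relative to mean and SD of the test wells; the first replicate is given; strong numbers were not always called active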
# The depositor's hits bear a star; . = no result given.
mol: CCOC(=O)c1cc(-c2ccccc2)nnc1Cl
  CapD inh = -0.43	AID504770 = 2
mol: O=C(O)C1CCC(c2ccc(-c3ccccc3)cc2)CC1 (stereo not drawn)
  CapD inh = -0.81	AID504770 = 0.35
mol: COc1ccc(NC(=O)CNc2cccc3c2CCCC3)cc1
  CapD inh = -0.03	AID504770 = -2.2
mol: Cc1cc(C)c(C)c(S(=O)(=O)N2CCN(C(=O)c3ccco3)CC2)c1C
  CapD inh = -0.22	AID504770 = 1.1
mol: CCOC(=O)c1c(C)oc2cc(Br)c(OCc3ccccc3Cl)cc12
  CapD inh = -0.62	AID504770 = .
mol: CN(C)c1ccc(/C=C2/C(=O)ON=C2c2ccccc2)cc1
  CapD inh = -0.6	AID504770 = 0.95
mol: CC1CN(C(=O)c2cc3c(s2)CCC3)CC(C)O1 (stereo not drawn)
  CapD inh = -0.53	AID504770 = -0.55
mol: CC(=O)N1CCN(c2nc(N)c3c(N)nc4c(c3c2C#N)CC(=O)N4C)CC1
  CapD inh = .	AID504770 = 0.25
mol: CC(C)CC(NC(=O)C1CCCCC1)C(=O)NCc1ccccn1 (stereo not drawn)
  CapD inh = -3.2	AID504770 = 0.35
mol: CCC(C)(C)NC(=O)Cn1nnc(-c2ccc(OC)cc2)n1
  CapD inh = .	AID504770 = -0.3

mol: CC(=O)N1C(C)(C)CC(=NOS(=O)(=O)c2ccccc2)CC1(C)C
  CapD inh = 0.39	AID504770 = .
mol: O=C(CCN1C(=O)c2ccccc2C1=O)Nc1ccc(S(=O)(=O)Nc2nccs2)cc1
  CapD inh = -0.62	AID504770 = -1.2
mol: O=C(O)c1ccc(CSc2nc3ccccc3s2)cc1
  CapD inh = -0.27	AID504770 = -0.3
mol: CCc1cc2c(=O)n(NC(=S)NC)cnc2s1
  CapD inh = .	AID504770 = -0.9
mol: O=S(=O)(c1cccc2cccnc12)N(CCc1ccccc1)Cc1ccccc1
  CapD inh = -0.22	AID504770 = 2.6
mol: Clc1ccc(Cn2c(/C=C/c3ccccc3)nc3ccccc32)c(Cl)c1
  CapD inh = 5.6	AID504770 = .
mol: O=C1C(c2c(O)n(-c3cc(Cl)cc(Cl)c3)[nH]c2=O)=Nc2ccccc21
  CapD inh = 1.8	AID504770 = 1.2
mol: N#Cc1c(-c2cccs2)cc(-c2ccccc2)nc1OCC(=O)c1ccccc1
  CapD inh = 64	AID504770 = 0.6
mol: COC(=O)c1c(C)[nH]c(C(=O)COC(=O)Cn2cc(C(F)(F)F)ccc2=O)c1C
  CapD inh = .	AID504770 = -0.25
mol: CN1CCN(C(=O)Cn2ncc3c4ccccc4n(C)c3c2=O)CC1
  CapD inh = 54	AID504770 = -0.65

mol: COc1ccc(-c2noc(CNC3CCCCC3)n2)cc1
  CapD inh = -0.51	AID504770 = 0.65
mol: CC1Cc2cc(S(=O)(=O)NCCN3CCN(Cc4ccccc4)CC3)ccc2N1C(=O)C1CC1 (stereo not drawn)
  CapD inh = -0.42	AID504770 = 0.15
mol: O=C(CSC1=NCCN1)N1CCc2ccccc21
  CapD inh = 0.35	AID504770 = -0.6
mol: NC(=O)c1ncoc1-c1ccc(Cl)cc1Cl
  CapD inh = -0.28	AID504770 = 1.1
mol: CCc1ccc(NC(=O)CSc2ccccc2)cc1
  CapD inh = -0.28	AID504770 = 1.6
mol: CC(C(=O)OCC(=O)c1ccc(Br)cc1)N1C(=O)C2C3C=CC(C3)C2C1=O (stereo not drawn)
  CapD inh = -0.33	AID504770 = .
mol: Cc1cccc(N2C(=O)C(N3C(=O)c4ccc([N+](=O)[O-])cc4C3=O)C2c2ccc(F)cc2)c1 (stereo not drawn)
  CapD inh = 0.03	AID504770 = .
mol: O=C(NCc1cn2ccsc2n1)C1c2ccccc2Oc2ccccc21
  CapD inh = .	AID504770 = -0.45
mol: CC1(C)CC(N2CCCC2)=C/C(=N/NC(=O)c2cccnc2)C1
  CapD inh = .	AID504770 = -0.15
mol: O=C(Cc1coc(-c2ccc(F)cc2)n1)NCc1ccccc1
  CapD inh = -0.24	AID504770 = -0.6

mol: COc1cccc(OC)c1C(=O)OCC(=O)c1cc2ccccc2o1
  CapD inh = .	AID504770 = -0.55
mol: CC(=O)N1CCC2(CC1)C(C#N)=C(N)SC(N)=C2C#N
  CapD inh = 0.82	AID504770 = 0.1
mol: Cc1cc(OCC(O)CN2C(C)CCCC2C)ccc1C(C)C (stereo not drawn)
  CapD inh = .	AID504770 = -0.95
mol: CN(C)c1ccc(/C=C2\C(=N)N3N=C(S(C)(=O)=O)SC3=NC2=O)cc1
  CapD inh = -1.2	AID504770 = 0.2
mol: O=C(OCCS(=O)(=O)c1ncccc1C(F)(F)F)c1cccc(Cl)c1
  CapD inh = -1	AID504770 = -2.2
mol: CCOC(=O)C1CCN(CN2C(=O)C3(SCC(=O)N3c3cccc(Cl)c3)c3ccccc32)CC1 (stereo not drawn)
  CapD inh = 0.39	AID504770 = -0.3
mol: CS(=O)(=O)c1ccc(NC(=O)c2cc(Cl)ccc2Cl)cc1C#N
  CapD inh = -0.79	AID504770 = .
mol: Cc1ccc(NCN2C(=O)c3ccccc3C2=O)cc1
  CapD inh = 0.28	AID504770 = -0.05
mol: CN(C(=O)CCOc1ccccc1)c1c(N)n(Cc2ccccc2)c(=O)[nH]c1=O
  CapD inh = .	AID504770 = 0
mol: N#C/C=C1/NC(=O)CS1
  CapD inh = .	AID504770 = -0.35

# Next section:
Compound	CapD inh	AID504770
CN(c1ccccc1)N1C(=O)CSC1=S	0.02	-1
COc1cc(/C=N/NC(=O)Cc2cn3ccsc3n2)cc(OC)c1O	.	0.6
Cc1ccc(C(=O)OCC2OC(n3cc(C)c(=O)[nH]c3=O)C(OC(=O)c3ccc(C)cc3)C2OC(=O)c2ccc(C)cc2)cc1 (stereo not drawn)	-0.19	.
Cc1cccc(-c2nc(C)c(CCNS(=O)(=O)c3ccc(F)c(C(F)(F)F)c3)s2)c1	-0.035	0.75
O=C(Nc1ccnc(-c2cccnc2)n1)c1cccc(C(F)(F)F)c1	0.39	-0.4
N#CC(C#N)=C(C#N)c1ccco1	-0.54	1
Cc1cccc(NS(=O)(=O)c2ccc3[nH]c(=O)cc(C)c3c2)c1	.	0.65
O=C(Oc1ccccc1C(=S)N1CCOCC1)c1ccccc1	14	0.3
COc1cccc2sc(=NC(=O)c3cccc4ccccc34)n(C)c12	0.28	-0.6
CN(C)C(=O)NC1C=CS(=O)(=O)C1 (stereo not drawn)	.	0.45
N#Cc1ccc(S(=O)(=O)N2CCNC(=O)C2CC(=O)Nc2cc(Cl)ccc2Cl)cc1 (stereo not drawn)	0.33	0.8
COC(C(=O)Nc1ccccc1C(=O)N1CCOCC1)c1ccccc1 (stereo not drawn)	-0.24	-1.1
CC(=O)Nc1c(O)c2ccccc2oc1=O	5.9	-1
OCCn1c(CSc2ccccc2)nc2ccc(Cl)cc21	.	3.2
NC(=S)N=Nc1c(O)[nH]c2ccc(F)cc12	-0.77	.
CCOc1nc2ccccc2c(=O)n1Cc1ccccc1	0.18	0.45
O=C(O)CCN=CC1=C(O)CC(c2ccccc2)CC1=O (stereo not drawn)	.	-0.8
O=C1CC(c2ccccc2)S(=O)(=O)c2ccccc21 (stereo not drawn)	-0.65	-0.15
CCOC(=O)Cn1nc(-c2cccs2)c(C#N)c1SC	-0.3	-0.45
N#Cc1ccc(COC(=O)CC2CCCC2)cc1	.	-0.3
OCCN(CCO)c1nc2ccccc2[nH]1	.	0.7
O=C(Cn1nc(-c2ccccc2)ccc1=O)NCC1COCCO1 (stereo not drawn)	.	-0.6
COc1ccc(C2(O)CC3CCC(C2)N3)cc1 (stereo not drawn)	-0.15	-0.25
Cc1oc2c(c1C(=O)NCCc1ccccc1)C(=O)c1ccccc1C2=O	0.72	0.55
CCOc1ccc(NC(=O)CSc2nnnn2C2CCCC2)cc1	.	0.45
CCN(CC)S(=O)(=O)c1ccc(NC(=O)COC(=O)Cc2cccs2)cc1	.	0.35
CCC(Sc1c[nH]c2ccccc12)C(=O)O (stereo not drawn)	.	-0.15
CC(=O)N(Cc1cc2ccccc2[nH]c1=O)C1CCCCC1	.	-0.9
O=C(CN1CCC(n2nnc3cc(C(F)(F)F)ccc32)CC1)N1CCc2ccccc21	.	2.5
O=[N+]([O-])c1ccc2c(c1)C=C1CCCC=C1O2	-0.21	.
CCc1ccccc1NC(=O)CCC(=O)N1CCCn2nc(C)cc21	0.15	-0.75
Cn1cc(C=Nc2ccccc2)c2ccccc21	0.55	-0.25
O=C(O)CCN1C(=O)c2ccccc2Sc2ncccc21	0.09	-0.5
CCCC(=O)N1c2cc(C)ccc2C(=C2SC(C(=O)OCC)=C(C(=O)OCC)S2)C(=S)C1(C)C	-0.5	.
Cc1ccc(N2C(=O)N(Cc3cc(=O)n4ccsc4n3)C(=O)C2C)cc1 (stereo not drawn)	.	0.4
COc1cccc(C(=O)N/C(=C\c2cccnc2)C(=O)N2CC3CC(C2)c2cccc(=O)n2C3)c1 (stereo not drawn)	-0.2	0
CCOC(=O)C(CC)Sc1nnc(-c2c[nH]c3ccccc23)n1C (stereo not drawn)	-0.76	2.6
CC(=O)NCCSc1cc(C)c(Cl)cc1C	0.49	.
O=C1C=CC(=O)N1c1ccc(F)c(Cl)c1	-1	2.4
COCCNC(=O)c1cc(C(=O)c2cc(Cl)ccc2O)coc1=N	.	-1.1

# Some of these compounds in order of number of heavy atoms, smallest number first.
Compound	CapD inh	AID504770
O=C1C=CC(=O)N1c1ccc(F)c(Cl)c1	-1	2.4
CC(=O)NCCSc1cc(C)c(Cl)cc1C	0.49	.
COc1ccc(C2(O)CC3CCC(C2)N3)cc1 (stereo not drawn)	-0.15	-0.25
N#Cc1ccc(COC(=O)CC2CCCC2)cc1	.	-0.3
O=C1CC(c2ccccc2)S(=O)(=O)c2ccccc21 (stereo not drawn)	-0.65	-0.15
CCOC(=O)Cn1nc(-c2cccs2)c(C#N)c1SC	-0.3	-0.45
O=C(O)CCN1C(=O)c2ccccc2Sc2ncccc21	0.09	-0.5
CC(=O)N(Cc1cc2ccccc2[nH]c1=O)C1CCCCC1	.	-0.9
COCCNC(=O)c1cc(C(=O)c2cc(Cl)ccc2O)coc1=N	.	-1.1
CCc1ccccc1NC(=O)CCC(=O)N1CCCn2nc(C)cc21	0.15	-0.75
Cc1ccc(N2C(=O)N(Cc3cc(=O)n4ccsc4n3)C(=O)C2C)cc1 (stereo not drawn)	.	0.4
CCN(CC)S(=O)(=O)c1ccc(NC(=O)COC(=O)Cc2cccs2)cc1	.	0.35
O=C(CN1CCC(n2nnc3cc(C(F)(F)F)ccc32)CC1)N1CCc2ccccc21	.	2.5
CCCC(=O)N1c2cc(C)ccc2C(=C2SC(C(=O)OCC)=C(C(=O)OCC)S2)C(=S)C1(C)C	-0.5	.
COc1cccc(C(=O)N/C(=C\c2cccnc2)C(=O)N2CC3CC(C2)c2cccc(=O)n2C3)c1 (stereo not drawn)	-0.2	0

# (more compounds)
Compound	CapD inh	AID504770
O=C(O)CCCN1C(=O)COc2ccc(Cl)cc21	.	2.4
CC1=C(CC(=O)N2CCC(NC(=O)OC(C)(C)C)C2)c2cc(F)ccc2/C1=C\c1ccc(S(C)=O)cc1 (stereo not drawn)	-0.86	.
O=C(NCc1ccc2c(c1)OCO2)C1CCC(=O)N1Cc1ccccc1Cl (stereo not drawn)	-0.91	0.05
O=C1C(Oc2ccc(Cl)cc2)C(c2ccc3c(c2)OCO3)N1CC1CCCO1 (stereo not drawn)	-0.19	-1.7
COc1cccc(OC)c1C(=O)N1CCNCC1	.	-0.8
Cc1ccc(NC(=O)c2c(NC(=O)c3ccccc3Br)sc3c2CCCCC3)cc1	-0.23	.
Fc1ccc(Nc2nc(NCc3ccccc3)nc(N3CCOCC3)n2)cc1	0.21	.
Cc1cc(C(C)(C)C)cc(C)c1COC(=O)C1CCC(=O)N1 (stereo not drawn)	-0.23	0.45
COC(=O)C1=C(C)N=C2SC(C#N)=C(N)N2C1c1cccs1 (stereo not drawn)	-3.7	-1.4
CC1=CCC(C(=O)O)C(C(=O)Nc2nc3ccc(S(C)(=O)=O)cc3s2)C1 (stereo not drawn)	0.47	1.2
Cc1csc2nc(O)c(C(=O)NCCN(C)C)c(=O)n12	.	1.6
O=c1cc(-c2ccccc2)oc2ccc(-c3nn[nH]n3)cc12	-0.5	-0.65
O=C(NCCC1=CCCCC1)c1cc2c(s1)-c1ccccc1SC2	42	-0.1
CN(C)S(=O)(=O)c1ccc(N2CCCC2)c(C(=O)OCc2cn3cc(Cl)ccc3n2)c1	.	0.1
COc1cc(C2Oc3c(OC)cccc3C3CC(c4cccnc4)=NN32)cc(OC)c1OC (stereo not drawn)	0.68	.
NS(=O)(=O)c1ccc(NC(=S)NC(=O)C2CCCCC2)cc1	-0.18	-0.4
CCOC(=O)NC(=S)N1CCSCC1	-0.34	.
COC(=O)Nc1cn(Cc2cccnc2)c(=O)c2ccccc12	4	-0.4
COc1cccc(OC)c1CNC(=O)CN	-0.22	.
Cc1ccc(C(=O)OCC(=O)NN2C(=O)NC3(CCC(C)CC3)C2=O)cc1 (stereo not drawn)	.	0.5
CN1CCN(Cn2c(O)c(N=NC(=O)c3ccc(Br)cc3)c3cc(Br)ccc32)CC1	.	-0.35
COc1cccc(C(=O)Nc2nc(SCc3ccc(Cl)cc3)n[nH]2)c1	-0.36	1.4

# Compound activity from PubChem.

# This is a subset, so the mix of outcomes need not match the whole.
